HNF4A DNA FP – change in binding of human HNF4A to DNA, primary screen, biochemical, fluorescence polarization, FITC-DNA; Hepatocyte nuclear factor 4-alpha (Homo sapiens), P41235; 1 h; activity change, % at 10 µM; actives 0.3% (n = 360,000); in the data active = activity change above about 30%, passing the limit was not always enough;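 note: controls were the assay level and a saturating level of protein; the project sought stronger binding though the title names inhibitors; some compounds called inactive have numbers as strong as hits; positive values seem to mean higher polarization but the record does not say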
Target sequence (P41235 whole entry, looked up): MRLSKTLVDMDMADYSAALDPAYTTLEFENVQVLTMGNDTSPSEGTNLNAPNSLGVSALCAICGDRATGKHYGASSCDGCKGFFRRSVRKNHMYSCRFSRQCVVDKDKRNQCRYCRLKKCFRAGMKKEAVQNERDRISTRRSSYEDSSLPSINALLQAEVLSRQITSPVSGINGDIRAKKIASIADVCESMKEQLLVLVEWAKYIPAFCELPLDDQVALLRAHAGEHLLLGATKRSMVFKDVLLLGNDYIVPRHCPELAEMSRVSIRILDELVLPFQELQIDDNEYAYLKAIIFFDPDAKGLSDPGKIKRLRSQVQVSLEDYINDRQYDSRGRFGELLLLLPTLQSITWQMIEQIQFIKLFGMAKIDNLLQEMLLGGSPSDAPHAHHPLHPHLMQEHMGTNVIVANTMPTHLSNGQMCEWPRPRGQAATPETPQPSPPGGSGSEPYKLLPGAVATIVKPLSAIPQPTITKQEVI
ALR inh – inhibitors of human ALR sulfhydryl oxidase, primary screen, biochemical, H2O2 detection, HRP-luminol luminescence, single point. actives 3.8% (n = 290,000). FAD-linked sulfhydryl oxidase ALR (Homo sapiens), P55789. inhibition, % (no concentration beside the values). purified ALR, DTT oxidation. AID 485317, 2010;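 active = mean and each replicate at 75% or more; inconclusive = only one of the two met; inactive = neither met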;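 note: stock transfer was 7.5 nL into about 7.5 µL; 0% = neutral wells and 100% = wells with inactivated enzyme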
Target sequence (P55789 whole entry, looked up): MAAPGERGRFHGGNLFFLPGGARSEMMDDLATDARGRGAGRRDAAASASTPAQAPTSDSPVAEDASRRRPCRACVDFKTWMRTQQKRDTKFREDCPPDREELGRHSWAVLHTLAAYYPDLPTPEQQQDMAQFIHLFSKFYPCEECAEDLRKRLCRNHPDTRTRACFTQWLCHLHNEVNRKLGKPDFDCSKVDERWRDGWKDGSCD
MLL AF4-AF9 inh – inhibitors of AF4 peptide binding to AF9, primary screen, biochemical, AlphaScreen, biotin-AF4 peptide, FLAG-AF9, single point. inhibition, % at 10 µM. Protein AF-9 (Homo sapiens), P42568. actives 0.47% (n = 350,000);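 active = every replicate reaching a set inhibition limit, whatever the replicate mean, cut at about 25% in these data; inconclusive = mean inhibition reaches that limit but some replicates miss it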;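 note: 0% = plate neutral control median and 100% = total signal loss; the record names both 10 and 1 µM as test concentration; the first replicate is given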
Vif A3G – inhibitors of Vif binding to APOBEC3G peptide, primary screen, biochemical, TR-FRET, GST-Vif 1-94, biotin-A3G peptide, dose response retest (AID 1117319); actives 0.57% (n = 260,000); TR-FRET GST-Vif / biotin-A3G peptide binding; higher % means a stronger effect; test concentration not given here; strong numbers were not always called active; inhibition, %, or IC50 in µM where a hit was titrated; Virion infectivity factor (Human immunodeficiency virus type 1 group M subtype B (isolate …;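 active = above the screen mean plus three standard deviations and confirmed in dose response; inconclusive = results disagree or hit not tested in dose response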;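 note: Vif residues 1-94 fused to GST binding biotinylated APOBEC3G peptide 110-148; 0% = full assay without inhibitor and 100% = GST in place of GST-Vif; retest series ran down from 100 µM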
Ecoli rRNA inh – reduced GFP signal of wild-type E. coli, primary screen, bacterial rRNA inhibitor project, GFP/RFP fluorescence, OD600, single point; E. coli WT GFP vs humanized-ribosome RFP mutants, 24 h; stronger effect = lower value; DMSO median 0, no signal -100; GFP signal change (wild-type ribosome), % (concentration not given with the values); actives 1.6% (n = 350,000); AID 720706, 2013;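 active = significant combined selectivity score with lowered wild-type GFP, culture density cut under 30%, mutant RFP and density less affected; inactive = any of these conditions unmet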; note: one replicate is shown; some compounds called inactive have numbers as strong as hits
Ecoli growth – E. coli growth inhibition, primary screen, OD600 | Escherichia coli growth, 23 h; stronger effect = lower value | OD600 absorbance (test concentration not listed) | actives 0.21% (n = 330,000) | AID 1053175, 2014;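 active = OD600 absorbance below the run mean of sample wells minus 3.6 SD, in any replicate, cut at about 0.56 in these data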;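 note: stock transfer was 300 nL into about 60 µL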
FGF22 binding – binders of human FGF22 protein, primary screen, FGF22 synaptogenesis inhibitor project, biophysical, thermal shift, single point; recombinant FGF22 thermal shift, SYPRO orange fluorescence; percent of sucrose octasulfate shift, DMSO zero; calls only at 9.99 µM; actives 1.5% (n = 340,000);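 active = melting point raised past a set limit in the mean and every replicate; inconclusive = no clear call; three in four hits are not shown here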
Target sequence (Q9HCT0 whole entry, looked up): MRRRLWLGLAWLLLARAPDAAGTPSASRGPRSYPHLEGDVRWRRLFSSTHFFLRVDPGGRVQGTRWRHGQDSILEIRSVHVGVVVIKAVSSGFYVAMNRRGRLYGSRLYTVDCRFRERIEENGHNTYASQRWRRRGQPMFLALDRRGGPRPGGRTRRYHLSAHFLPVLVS
Ecoli rRNA inh OD600 – further read-out of Ecoli rRNA inh, marked with its call; OD600 change, %; measured here: OD600 growth;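 optical density of the mix in the first replicate; 0 = DMSO median and -100 = no signal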
Ecoli rRNA inh RFP – further read-out of Ecoli rRNA inh, marked with its call; RFP signal change, %; measured here: RFP humanized mutant strains;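 first replicate; 0 = DMSO median and -100 = no signal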
* marks the source's active call; other numbers are inactive results; i = inactive; u = inconclusive; x = not tested or not shown; + = active, no number. An excerpt; count on the stated rates, not on these rows.

SMILES	HNF4A DNA FP	ALR inh	MLL AF4-AF9 inh	Vif A3G	Ecoli rRNA inh	Ecoli rRNA inh OD600	Ecoli rRNA inh RFP	Ecoli growth	FGF22 binding
O=C(Nc1cccc(F)c1)N1C[C@@H]2[C@H](c3ccccc31)[C@@H](CO)N2C(=O)c1ccccc1F	x	x	-2.4	x	-2	-5	0.8	x	i
Cc1nc2cc[nH]n2c(=O)c1CCc1ccccc1	x	x	0.5	x	-9	-11	-2.1	x	i
O=C(CSc1n[nH]c(-c2ccccc2F)n1)Nc1cc(F)ccc1F	3.8	1	1.2	6%	-4	-22	4.6	0.69	i
O=C(NCC1CCCO1)c1cccc(Oc2c(Cl)cccc2[N+](=O)[O-])c1 (centres undefined)	2.7	-17	1.5	x	-1	-3	-2.0	0.66	i
COc1ccc(C(=O)C2CCCN(C(=O)c3ccc4nccnc4c3)C2)c(C)c1 (centres undefined)	-31	3	-19	x	-1	-6	-1.7	0.67	i
Cc1ccnc(Sc2ccc([N+](=O)[O-])cc2[N+](=O)[O-])n1	-2.1	-9	x	14%	x	x	x	0.69	x
Cc1ccc(C)c(S(=O)(=O)c2c(C)cc(C)[nH]c2=O)c1	-3.8	-1	-2.0	0%	10	12	0.7	0.68	i
Cc1ccccc1C(=O)N1CCN(c2ccc(NC(=O)c3ccccc3[N+](=O)[O-])cc2)CC1	0.5	0	0.3	9%	14	11	-0.3	0.72	i
CC(NC(=O)COC(=O)c1cc([N+](=O)[O-])ccc1N1CCOCC1)c1ccc(F)cc1 (centres undefined)	-1.8	0	9.6	8%	-7	4	-1.5	0.7	i
O=C(c1ccc2c(=O)n(CCc3ccccc3)c(=O)[nH]c2c1)N1CCN(c2ccccc2)CC1	-0.6	-1	x	x	x	x	x	0.71	x
C[C@@H]1CN([C@H](C)CO)C(=O)c2cccc(NC(=O)C3CCCCC3)c2O[C@@H]1CN(C)CC1CC1	x	x	-2.5	x	2	-2	-2.0	x	i
CCN(CCO)c1ncnc2c1sc1nc(C(C)C)c3c(c12)CC(C)(C)OC3	2.0	-3	x	3%	x	x	x	0.68	x
CSC1=NC2(C[C@H]2c2ccccc2)C(=O)N1C (some centres undefined)	1.3	-2	-0.7	x	5	17	-2.6	0.68	i
O=C(NC1CCS(=O)(=O)C1)/C(=C/c1ccco1)NC(=O)c1ccccc1 (centres undefined)	1.7	1	-1.9	1%	21	15	4.9	x	i
COc1cccc(CN(C)C(=O)[C@@H](NC(=O)c2ccc(C)cc2)C(C)C)c1	3.9	-42	-0.1	-4%	3	0	-0.8	0.69	i
CCn1c2ccccc2c2cc(NC(=O)COC(=O)c3cc(Cl)c(N)cc3OC)ccc21	12	-1	-3.0	21%	-9	2	0.2	0.71	i
O=C(COc1ccc(S(=O)(=O)N2CCCCC2)cc1)NC1CCCCC1	2.1	-35	x	0%	x	x	x	0.72	x
CC1CC(C)C(=NNC(N)=O)C(C(O)CC2CCC(=O)NC2=O)C1 (centres undefined)	-4.2	x	1.6	-3%	12	35	-0.6	0.68	i
NC(=O)c1ccccc1NC(=O)N1CCOCC1	-2.2	-7	-1.5	5%	12	9	0.4	0.64	i
S=C(Nc1ccccc1Cl)N(Cc1ccccc1)Cc1cccnc1	0.4	x	-0.3	x	-31	-34	-20	0.64	i
CC(=O)N/N=C/c1ccccc1OCCOc1cccc(C)c1	1.9	-11	1.4	x	16	10	2.8	x	i
CCC(C)c1ccc(NC(=O)Nc2cnccn2)cc1 (centres undefined)	2.0	-7	2.3	10%	-3	2	-1.2	0.69	i
COc1ccc(C2NC(=O)C(C#N)=C(S)N2c2ccccc2)cc1OC (centres undefined)	-0.7	94*	-3.4	11%	-3	8	-0.2	0.7	x
Cc1onc(C(=O)NCc2ccc(F)cc2)c1[N+](=O)[O-]	-2.6	-2	-0.6	-2%	16	14	1.1	0.74	i
CCOC(=O)C1=CC[C@H]2c3c(c4ccccc4n3C)C(=O)C1N2S(=O)(=O)c1ccc(C)cc1	2.4	-18	-13	x	-2	-13	4.5	x	i
CCc1ccc(NC(=O)C(=O)NNC(=O)c2cccs2)cc1	0.8	x	1.9	x	-38	-51	-0.9	0.65	i
CC=Cc1ccc2n(c1=O)C[C@@H]1[C@@H](CO)[C@H](C(=O)NCC3CC3)N(Cc3cccnc3)[C@H]21 (mixture of isomers)	x	x	-1.3	x	-1	2	-1.4	x	i
CCCC(=O)N1CCCC1(C)C(=O)Nc1ccc(-n2cncn2)cc1 (centres undefined)	0.3	x	-7.1	x	8	9	2.0	x	i
O=C(N/N=C/c1ccc2c(c1)OCO2)C(O)c1ccccc1 (centres undefined)	1.7	20	x	-3%	x	x	x	x	x
Cc1ccc(/C=C(\C#N)C(=O)Nc2cccc3ncccc23)o1	-10	-7	6.4	u	4	7	16	0.65	i
O=C(Nc1ccc(-c2ccc(N3CCCCC3)nn2)cc1)c1ccco1	0.2	x	2.3	2%	-8	3	-3.6	0.65	i
N=c1ccn(Cc2ccc(Cl)cc2Cl)cc1	0.1	x	x	-1%	x	x	x	0.74	x
CCCCc1nc2cc(C(=O)N(C)C3CCOCC3)ccc2o1	3.8	-9	-0.5	x	4	11	-1.4	0.74	i
Cc1c(NC(=O)/C(C#N)=C/c2c(N3CCCCC3)nc3ccccn3c2=O)c(=O)n(-c2ccccc2)n1C	-1.1	-3	-0.4	x	x	x	x	0.76	i
CCCCn1c(N)c(N(CC(C)C)C(=O)CCNC(=O)c2ccccc2Cl)c(=O)[nH]c1=O	-4.7	0	2.7	6%	5	22	-2.4	0.63	i
COCC(=O)Nc1ccc2c(c1)[C@H]1C[C@@H](CC(=O)NCc3ccccn3)O[C@H](CO)[C@H]1O2	x	x	-19	x	-1	3	-4.9	x	+
COC(=O)CCNC(=O)c1ccc2nc(Cc3ccc(OC)c(OC)c3)oc2c1	2.6	-3	-1.5	x	6	10	1.3	0.71	i
COc1ccccc1C(=O)NC(=O)CSc1nnc2ccccn12	3.0	1	-1.6	x	x	x	x	0.69	i
COc1ccc(CCn2c(=O)[nH]c3cc(C(=O)N4CCN(c5ccccc5)CC4)ccc3c2=O)cc1OC	-0.9	-3	-2.8	1%	5	-3	-0.6	0.7	i
COc1ccc(NC(=O)CSc2nnc(C(C)C)n2N)cc1	3.1	-7	x	10%	x	x	x	0.73	x
COc1ccc2c3c([nH]c2c1)[C@H](CO)N(C(=O)CN(C)C)CC31CCN(C(=O)c2ccncc2)CC1	x	x	-3.9	x	2	6	-3.7	x	i
COc1ccc(CCNC(=O)CCN2C(=O)[C@@H]3Cc4ccccc4CN3C2=O)cc1	-8.1	-3	0.4	x	13	13	-0.1	0.68	i
O=c1c2c(ncn1CCO)nc1n2CCC1	-3.3	-3	x	27%	x	x	x	0.71	x
CC(C)NC(=O)Nc1ccc2c(c1)C(=O)N([C@H](C)CO)C[C@H](C)[C@@H](CN(C)C(=O)c1ccccc1)OCCCC[C@H](C)O2	x	x	0.3	x	4	2	0.3	x	i
Clc1ccc(-n2nnc(-c3cccnc3)n2)cc1Cl	0.6	3	-10	x	9	19	-2.8	0.69	i
CN(CC(=O)Nn1cnnc1)S(=O)(=O)c1cc(Cl)ccc1Cl	-2.7	-14	x	4%	x	x	x	0.76	x
COc1cc(NS(=O)(=O)c2ccc(NC(=O)COc3ccccc3Cl)cc2)nc(OC)n1	x	93*	x	1%	x	x	x	0.72	x
Cc1ccc(S(=O)(=O)N2CC3C(=O)CC(c4ccccc4)N(S(=O)(=O)c4ccc(C)cc4)C3CC2c2cccc(Cl)c2)cc1 (centres undefined)	14	x	x	x	6	-5	-4.1	x	i
CN(CCC#N)CC(=O)Nc1ccc(NC(=O)CN(C)CCC#N)cc1	0.7	-7	x	31%	x	x	x	0.67	x
COc1cc(CC(NC(C)=O)C(=O)NC2CCN(S(=O)(=O)c3ccc(NC(C)=O)cc3)CC2)cc(OC)c1 (centres undefined)	-3.0	-8	-3.3	x	8	11	1.8	0.67	i

An excerpt from above with just Ecoli rRNA inh OD600, ALR inh and Vif A3G:
SMILES	Ecoli rRNA inh OD600	ALR inh	Vif A3G
CN(CC(=O)Nn1cnnc1)S(=O)(=O)c1cc(Cl)ccc1Cl	x	-14	4%
COc1cc(NS(=O)(=O)c2ccc(NC(=O)COc3ccccc3Cl)cc2)nc(OC)n1	x	93*	1%
Cc1ccc(S(=O)(=O)N2CC3C(=O)CC(c4ccccc4)N(S(=O)(=O)c4ccc(C)cc4)C3CC2c2cccc(Cl)c2)cc1 (centres undefined)	-5	x	x
CN(CCC#N)CC(=O)Nc1ccc(NC(=O)CN(C)CCC#N)cc1	x	-7	31%

New compounds follow
SMILES	HNF4A DNA FP	ALR inh	MLL AF4-AF9 inh	Vif A3G	Ecoli rRNA inh	Ecoli rRNA inh OD600	Ecoli rRNA inh RFP	Ecoli growth	FGF22 binding
Cc1ccc(NC(=O)COC(=O)CN2CCCCCC2=O)cc1C	0.1	24	0.3	-10%	x	x	x	0.65	i
CC1CCN(S(=O)(=O)c2cccc(C(=O)Nc3nncs3)c2)CC1	-0.6	10	-0.9	3%	-2	-5	-1.5	0.69	i
C/C=C/c1cnc2c(c1)C(=O)N([C@H](C)CO)C[C@H](C)[C@H](CN(C)Cc1ccccc1)O2	x	x	-2.7	x	5	13	-0.4	x	i
O=C(CSc1nc2ccccc2c(=O)n1Cc1ccco1)NCCN1C(=O)CSC1=O	5.8	-15	3.7	x	11	4	4.3	0.67	i
O=C(N[C@@H]1CC[C@H](CCn2cc(C3(O)CCCC3)nn2)O[C@@H]1CO)C1CCOCC1	x	x	-0.2	x	-1	0	-0.1	x	i
COc1ccccc1-c1nc(S(=O)(=O)c2ccccc2)c(N2CCOCC2)o1	1.7	2	3.5	-8%	4	2	0.7	0.68	i
COc1ccc(C)cc1-n1nnnc1SCC(=O)NC1CC1	-0.1	0	-2.6	-12%	6	7	-1.9	0.59	i
O=C(Nc1cccc2c1CCCC2)c1cc(C2CCCCN2C(=O)OCCF)on1 (centres undefined)	5.1	x	-0.7	x	-12	-24	-2.4	x	i
COc1ccc(CNC(=O)C[C@H]2C[C@H]3c4cc(NS(C)(=O)=O)ccc4O[C@H]3[C@H](CO)O2)cc1	x	x	-0.2	x	-1	7	-4.0	x	i
C=C(C)C1CC=C(C)C(=NNC(=O)c2ccncc2)C1 (centres undefined)	-0.5	x	0.3	-5%	15	8	1.2	0.69	i
CC(C)CCn1cnc2c(NCc3ccccc3)ncnc21	1.2	1	x	-5%	x	x	x	0.7	x
COc1ccccc1N(CC(=O)NCC1CCCO1)C(=O)CNS(=O)(=O)c1ccccc1 (centres undefined)	-3.5	-4	3.3	0%	1	3	-0.1	0.71	i
Cc1c(C(=O)Nc2ccc3nc(N4CCOCC4)sc3c2)oc2ccccc12	-4.2	-2	3.0	-9%	6	6	-1.8	0.69	i
CCOc1ccccc1N1CCN(S(=O)(=O)c2cccc3nsnc23)CC1	2.5	58	21	15%	-12	-3	4.4	0.7	i

Screening data (PubChem BioAssay)
